2A firefly = Primary qHTS Assay for Foot and Mouth Disease Virus Antivirals against NCGC Sytravon and CBC Compound Libraries: Firefly Luciferase Signal; HEK cells with a luciferase reporter of 2A StopGo recoding; Potency, µM (doses to about 57.5 µM), without a hit: at the highest dose signal change, negative = less light; actives 0.23% (n = 120,000); AID 1745856, 2022; active = well fitted falling curve with a large enough effect; inconclusive = small, poorly fitted or top-dose-only effect; inactive = no such curve, though single readings can be large or run the other way; also: nearly all actives have a fitted effect of over 60% in size; overnight with compound
2A Renilla = Primary qHTS Assay for Foot and Mouth Disease Virus Antivirals against NCGC Sytravon and CBC Compound Libraries: Renilla Luciferase Signal; Potency, µM (doses to about 57.5 µM), inactives show top-dose signal change, negative = less light; actives 0.32% (n = 120,000); AID 1745857, 2022; HEK cells with a luciferase reporter of 2A StopGo recoding; active means well fitted falling curve with a large enough effect; inconclusive means small, poorly fitted or top-dose-only effect; inactive means no such curve, though single readings can be large or run the other way; also: nearly all actives have a fitted effect of over 55% in size; overnight with compound
* = called active by the depositor; ? = inconclusive; [ ] = dose if it differs, or a comment. % is scaled to controls: 0 for no effect and ±100 for the full control effect; potency is read from the fitted curve at half-maximal effect. These rows are one share of the data (hit frequency here may not be typical).

SMILES	2A firefly	2A Renilla
CN(CCO)c1ccc(-c2n[nH]c(=O)c3ccccc23)cc1[N+](=O)[O-]	23%	5%
Cc1nc2nc(N)nn2c(C)c1CC(=O)NCCC(C)C	4%	4%
CCc1ccccc1NC(=O)c1ccc(CN2C(=O)CCn3nc(C)cc32)cc1	3%	-5%
COc1nc2ccccc2nc1N1CCC(C(=O)Nc2ccc(Cl)cc2)CC1	-9%	-14%
COc1ccc2nc(N(Cc3cccnc3)C(=O)Cc3ccccc3)sc2c1	0%	131%[activator]
CC1CCc2c(sc3nnn(CC(=O)Nc4ccc(Cl)cc4)c(=O)c23)C1 (stereo not given)	-12%	-10%
CN1Cc2nnn(Cc3ccccc3)c2-c2ccccc2S1(=O)=O	3%	41%[activator]
Cc1ccc(CC(=O)N(C)Cc2ccsc2)cc1	25%	22%
Cc1cc(C)c2c(CC(=O)Nc3cccnc3)coc2c1	-5%	?
NCC1CCN(Cc2ccco2)C1 (stereo not given)	16%	9%
O=C(Nc1cc(C(F)(F)F)cc(C(F)(F)F)c1)c1cccn(Cc2ccccc2Cl)c1=O	-6%	-15%
CCc1cccc(C)c1NC(=O)CCn1c(=O)n(CC)c2ccccc21	10%	11%
CCCCN(C)C(=O)C1CCC(Cn2c(=O)c3sccc3n(CC(=O)N(CC)CC)c2=O)CC1 (stereo not given)	-5%	-2%
Cc1ccc(NC(=O)n2ncc3c(C)cccc32)c(C)c1	64%[activator]	-2%
FC(F)(F)c1ccc(/C=N/Nc2ccccc2Cl)cc1	230%[activator]	9%
O=C(O)c1cnc(-c2ccccc2)[nH]1	2%	9%
COc1ccc(CCNC(=O)CCn2c(=O)c3cccn3c3ccc(F)cc32)cc1OC	-14%	-8%
O=[N+]([O-])c1ccc(/C=N/OCc2cc(F)cc3cccnc23)cc1	150%[activator]	0%
Cc1nc2cc(NC(=O)C(C)Oc3ccc(C#N)cc3)ccc2o1 (stereo not given)	20%	10%
O=C(O)CCc1ccc(S(=O)(=O)NCc2ccco2)cc1	0%	9%
CC1=C(C(=O)OC2CCCCCC2)C(c2c(Cl)cccc2Cl)CC(=O)N1 (stereo not given)	?	-26%
O=C1c2ccccc2NC(c2cc3ccccc3[nH]c2=O)N1C1CC1 (stereo not given)	8%	-6%
CN(C(=O)Cn1ncc2c1-c1ccccc1OC2)c1ccc(Br)cc1	6%	-8%
Oc1c(C(c2ccc(Br)cc2)N2CCOCC2)sc2nc(-c3ccco3)nn12 (stereo not given)	5%	8%

Entries of single compounds from above.
Results for O=[N+]([O-])c1ccc(/C=N/OCc2cc(F)cc3cccnc23)cc1 = 2A firefly = 150%[activator]; 2A Renilla = 0%
Results for FC(F)(F)c1ccc(/C=N/Nc2ccccc2Cl)cc1 = 2A firefly = 230%[activator]; 2A Renilla = 9%

The results go on:
SMILES	2A firefly	2A Renilla
CCc1ccc(S(=O)(=O)c2cn(C)c3cc(N4CCC(C)CC4)c(F)cc3c2=O)cc1	0%	10%
CC(C)c1ccc(S(=O)(=O)N2CCN(CC(=O)NC(C)c3cccs3)CC2)cc1 (stereo not given)	3%	5%
O=C(O)c1ccc(F)cc1Br	9%	5%
COc1ccc(NC(=O)CCn2cccn2)cc1OC	-11%	-7%
Cc1ccc(COc2ccc(C3C(C#N)=C(N)Oc4cc(O)ccc43)cc2)cc1 (stereo not given)	-7%	-10%
COc1ccc(Cl)cc1NC(=O)CCCn1c(=O)c2cccn2c2cccnc21	-7%	-9%
CCc1ccc(NS(=O)(=O)c2ccc(C(=O)N(C)C)s2)cc1	?	?
Cc1ccc(NC(=O)CN(C)C(=O)CN2CCCC(C(F)(F)F)C2)cc1 (stereo not given)	0%	-4%[1.06 µM]
COc1ccc(OC)c(CNC(=O)c2scnc2C)c1	-11%	-16%
CN1CCN(C(=O)c2ccccc2NC(=O)C(C)(C)C)CC1	-3%	-6%
NC(=O)C(c1ccccc1)N(Cc1cccs1)C1CC1 (stereo not given)	?	?
CCOc1cc(S(=O)(=O)NCCc2c(C)[nH]c3ccc(C)cc23)ccc1Br	30%[activator]	201%[activator]
CC(=O)c1c(C)oc2c(Br)cc(NS(=O)(=O)c3ccc(Br)cc3)cc12	-10%	5%
CC1(C)CC(=O)c2cc(-c3nc(-c4ccccc4)cs3)c(=O)[nH]c2C1	-6%	-22%
Nc1ccccc1C1CC1(Cl)Cl (stereo not given)	50%[activator]	21%
COc1ccc(OC)c(NC(=O)CN2C(=O)COc3ccc(S(=O)(=O)NC4CCCC4)cc32)c1	-11%	37%[activator]
Cn1ccnc1C(NC(=O)Nc1ccc(Cl)cc1)c1ccccc1F (stereo not given)	27%	9%
CCC(Cc1ccccc1)NC(=O)Cn1nc(C)n2c(cc3occc32)c1=O (stereo not given)	-4%	-6%
O=c1oc2ccc(F)cc2cc1S(=O)(=O)N1CCc2ccccc2C1	-4%	-4%
NC(=O)c1ccc(NC(=O)COC(=O)c2cc(=O)[nH]c3ccccc23)cc1	21%	7%
COc1ccc(N(CC(=O)N2CCN(c3ccc(F)cc3)CC2)S(=O)(=O)c2c(C)noc2C)cc1	-27%	-1%
Cc1ccccc1/[N+]([O-])=C\c1cccs1	8%	-6%
CN(C)CCCn1c(=O)[nH]c(=O)c2c1ncn2C	-10%	-8%
N#CC1(c2ccc(NC(=O)Cc3ccc(Cl)cc3)cc2)CCCC1	0%	2%
CCOC(=O)c1cc(-c2ccccc2)n(CC(=O)NC(C)c2ccccc2)c1C (stereo not given)	0%	73%[activator]
CCC(C)N1CNc2c(c(=O)[nH]c(=O)n2-c2ccc(Cl)cc2)C1 (stereo not given)	21%	13%
COc1ccc(C(CNC(=O)C2CCN(S(=O)(=O)c3ccc4c(c3)CCC4)CC2)N(C)C)cc1 (stereo not given)	15%	29%
CCCCNC(=O)CSc1cc(C)c2cccc(C)c2n1	7%	12%
O=C(CCc1nc(-c2ccc(Cl)cc2)no1)Nc1cccc(S(=O)(=O)NC2=NCCC2)c1	0%	-18%
CCOc1ccc(NC(=O)Cn2cc(C(=O)c3ccccc3)c3ccccc32)cc1	-13%	2%
CC(C)c1ccc(NC(=O)CSc2ncc3c(n2)-c2cc(Cl)ccc2N(C)S3(=O)=O)cc1	23%	-1%
COc1ccc(C(CNC(=O)c2cc(-c3cccs3)on2)N2CCOCC2)cc1 (stereo not given)	-1%	8%
Oc1ccc(N=Cc2ccc3ccccc3c2)cc1	0%	10%
Oc1ccc(-c2csc(Nc3cccc(O)c3)n2)cc1	211%[activator]	14%
CCOC(=O)Cn1c(=O)c2c(nc(N3CCOCC3)n2Cc2ccccc2)n(C)c1=O	25%	30%
CCN(CC)S(=O)(=O)c1cccc(NC(=O)COC(=O)c2cc(=O)c3ccccc3o2)c1	3%	11%
CC(C)Oc1ccc(CNS(=O)(=O)c2ccc(-c3cc(C(F)(F)F)on3)s2)cc1	-10%	-9%
CCOc1ccc(NC(=O)CSc2nnc3scc(-c4ccc(Cl)cc4)n23)cc1	-3%	18%
CC(C)c1ccc(C(C)NC(=O)c2ccc(C(F)(F)F)nc2)cc1 (stereo not given)	-6%	-18%
O=C(Nc1ccccc1)C1CCN(S(=O)(=O)c2ccc3[nH]c4c(c3c2)CCCCC4)CC1	?	-21%
CCn1c(SCC(=O)Nc2ccc(F)cc2F)nnc1C(C)NC(=O)c1ccco1 (stereo not given)	3%	-2%
NCCSCc1ccco1	14%	15%
COc1cccc(-n2nnc3c(N4CCN(S(=O)(=O)c5ccccc5F)CC4)ncnc32)c1	5%	-4%
Cc1c(C(=O)Nc2ccc3c(c2)N(C)C(=O)CO3)oc2ccccc12	49%[activator]	34%
Cc1cc(C)cc(OCCOCCn2c(-c3ccc(Cl)cc3)nc3ccccc3c2=O)c1	12%	-8%
COCCCNC(=O)Cn1ccc2ccc(Cl)cc21	10%	-11%
CN(C(=O)CN1CCN(Cc2ccccc2)CC1)c1ccccc1C(=O)NCc1ccco1	-7%	-12%
CN(CCC#N)C(=O)CSc1nnc(-c2c[nH]c3ccccc23)o1	109%[activator]	14%
CCc1ccc(C(c2ccccc2)c2c[nH]c3ccc(C)cc23)s1 (stereo not given)	39%[activator]	3%
Cc1c(C)c2c(c(C)c1O)CCC(C)(COc1ccc(CC3SC(=O)NC3=O)cc1)O2 (stereo not given)	-7%[11.5 µM]	-20%
C=C(C)CN(CC)C(=O)CCc1ccsc1	0%	28%
O=C(c1cccs1)N(Cc1cccc(Br)c1)C1CC1	4%	28%
Clc1cccc(N2CCN(c3nc4ccccc4c4nc(-c5ccccc5)nn34)CC2)c1	-17%	-18%
Cc1ccc2oc(=O)c(-c3nc4ccc(C)cc4[nH]3)cc2c1	65%[activator]	-1%
O=C(CSc1nc(-c2cccs2)nc2ccccc12)NCc1ccco1	54%	21%
Cc1[nH]c(C(=O)NOCc2ccccc2)c(C)c1C(=O)OC(C)C	77%[activator]	188%[activator]
Cc1cc(C(F)F)n2nc(C(=O)Nc3ccc(F)c(Cl)c3)nc2n1	6%	4%
CC(=O)NC1C(=O)N(CCOc2cccc(C)c2)c2ccc(C)cc21 (stereo not given)	35%[activator]	1%
N#Cc1c(N)c(-c2ccccc2)c(F)c2ccccc12	41%[activator]	-4%
N#Cc1nc(-c2ccccc2F)oc1NCC1CCCO1 (stereo not given)	-7%	?
Continuation:
SMILES	2A firefly	2A Renilla
c1ccc(CNCc2cccc(Oc3nnnn3-c3ccccc3)c2)cc1	-5%	-1%
COc1ccc(OC)c(C(=O)COC(=O)CCSc2ccccc2Cl)c1	8%	15%
CCOc1ccc(-n2nnnc2CNS(C)(=O)=O)cc1	4%	-6%
COc1cccc2c1Oc1ncccc1N(C(=O)CCC(=O)NCc1ccc(C)cc1)C2	-7%	-6%
COc1cc(NC(=O)c2ccc(C#N)cc2F)ccc1NC(=O)c1cc2ccccc2o1	-6%	-10%
COc1ccc(-c2c(NC(=O)c3ccc([N+](=O)[O-])cc3)oc3ccc(Cl)cc3c2=O)cc1OC	0%	-5%
Cc1ccc(C)n1-c1c(C(=O)NCCN2CCCCC2)sc2ncccc12	-2%	4%
O=C(CCCc1c[nH]c2ccccc12)NCC12CC3CC(CC(C3)C1)C2	11%	-3%
O=S(=O)(c1ccc(Cl)cc1)c1nc(-c2ccccc2F)oc1NCc1ccccc1	-22%	233%[activator]
CC(C)Cn1c(Oc2ccc(Cl)cc2)nc2c1c(=O)n(C)c(=O)n2C	-17%	-1%
CCc1c(C)nc2n(c1=O)CN(CCCN1CCOCC1)CN2c1ccccc1OC	39%[activator]	20%
CN(Cc1ccc(F)cc1)C(=O)c1ccc(Cl)c(S(=O)(=O)NC2CC2)c1	-6%	109%[activator]
COc1ccccc1OCC(=O)N(Cc1ccco1)Cc1ccccc1F	-2%	146%[activator]
CCOc1ccc(C2c3[nH]c4ccccc4c3CCN2C(=O)CSc2ccccc2)cc1 (stereo not given)	-18%	19%
CCCCn1c(CCC(=O)Nc2cc(C)ccc2C)nc2c1c(=O)[nH]c(=O)n2CCC	5%	14%
O=C(c1ccc2ccccc2n1)N1CCC(C(=O)N2CCCCCC2)CC1	5%	4%
CC1=C(C#N)C(NC(=O)C2CC2)(C(F)(F)F)C(=O)N1 (stereo not given)	10%	0%
Cc1ccc(C)c(-c2cc(-c3ccccc3)c3ccccc3n2)c1	8%	10%
CCOC(=O)c1cccc(NC(=O)CCCn2nc(C)c3c(C)n(-c4ccccc4)nc3c2=O)c1	-7%	-6%
CC(NC(=O)C1CCCCC1)C1CCCO1 (stereo not given)	-4%	5%
Cc1cc(S(=O)(=O)Nc2cc3c(cc2N2CCOCC2)n(C)c(=O)c(=O)n3C)ccc1F	-2%	-1%
CC(C)(C)C1CCc2c(sc(NC(=O)c3noc4c3CCCC4)c2C#N)C1 (stereo not given)	0%	-3%
CCCC(=O)OCC(=O)NCc1ccc(OC)cc1	-4%	-10%
COc1cc(-c2noc(C3CC(=O)N(c4ccc5c(c4)OCCO5)C3)n2)cc(OC)c1OC (stereo not given)	-7%	-4%
CNC(=O)c1ccc(NC(=O)c2nsc3ccccc23)cc1	-7%	5%
O=C(NCc1coc(-c2cccs2)n1)c1ccc(S(=O)(=O)C(F)F)cc1	4%	18%
Cc1cc(C)cc(OCCCn2c(-c3ccc(Cl)cc3)nc3ccccc3c2=O)c1	-3%	-5%

Quoted from the results shown (6 entries):
SMILES	2A firefly	2A Renilla
CC(C)(C)C1CCc2c(sc(NC(=O)c3noc4c3CCCC4)c2C#N)C1 (stereo not given)	0%	-3%
CCCC(=O)OCC(=O)NCc1ccc(OC)cc1	-4%	-10%
COc1cc(-c2noc(C3CC(=O)N(c4ccc5c(c4)OCCO5)C3)n2)cc(OC)c1OC (stereo not given)	-7%	-4%
CNC(=O)c1ccc(NC(=O)c2nsc3ccccc23)cc1	-7%	5%
O=C(NCc1coc(-c2cccs2)n1)c1ccc(S(=O)(=O)C(F)F)cc1	4%	18%
Cc1cc(C)cc(OCCCn2c(-c3ccc(Cl)cc3)nc3ccccc3c2=O)c1	-3%	-5%
